FGF22 binding: binders of recombinant human FGF22 by thermal shift; SYPRO orange fluorescence; percent of sucrose octasulfate shift, DMSO zero; calls only at 9.99 µM; actives 1.5% (n = 340,000); AID 651658;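 active = melting point raised past a set limit in the mean and every replicate; three in four hits are not shown here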
Target sequence (Q9HCT0 whole entry, looked up): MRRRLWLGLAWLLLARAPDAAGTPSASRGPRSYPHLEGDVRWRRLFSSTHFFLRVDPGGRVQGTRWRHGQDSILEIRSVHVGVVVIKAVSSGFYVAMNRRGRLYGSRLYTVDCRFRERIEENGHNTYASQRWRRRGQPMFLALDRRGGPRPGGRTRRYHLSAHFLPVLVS
Ecoli rRNA inh: selective bacterial rRNA inhibition in E. coli. actives 1.6% (n = 350,000). E. coli WT GFP vs humanized-ribosome RFP mutants, fluorescence, 24 h; active compounds read low; DMSO median 0, no signal -100. GFP signal change (wild-type ribosome), % (no concentration beside the values);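 active = significant combined selectivity score with lowered wild-type GFP, culture density cut under 30%, mutant RFP and density less affected; inactive = any of these conditions unmet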; note: one replicate is shown; some compounds called inactive have numbers as strong as hits
MLL AF4-AF9 inh: inhibitors of human MLL-AF4/AF9 interaction | actives 0.47% (n = 350,000) | AID 651704 | AlphaScreen, biotin-AF4 peptide binding to FLAG-AF9 | inhibition, % at 10 µM;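 active = every replicate reaching a set inhibition limit, whatever the replicate mean, cut at about 25% in these data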;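 note: 0% = plate neutral control median and 100% = total signal loss; the record names both 10 and 1 µM as test concentration; the first replicate is given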
Target sequence (P42568 whole entry, looked up): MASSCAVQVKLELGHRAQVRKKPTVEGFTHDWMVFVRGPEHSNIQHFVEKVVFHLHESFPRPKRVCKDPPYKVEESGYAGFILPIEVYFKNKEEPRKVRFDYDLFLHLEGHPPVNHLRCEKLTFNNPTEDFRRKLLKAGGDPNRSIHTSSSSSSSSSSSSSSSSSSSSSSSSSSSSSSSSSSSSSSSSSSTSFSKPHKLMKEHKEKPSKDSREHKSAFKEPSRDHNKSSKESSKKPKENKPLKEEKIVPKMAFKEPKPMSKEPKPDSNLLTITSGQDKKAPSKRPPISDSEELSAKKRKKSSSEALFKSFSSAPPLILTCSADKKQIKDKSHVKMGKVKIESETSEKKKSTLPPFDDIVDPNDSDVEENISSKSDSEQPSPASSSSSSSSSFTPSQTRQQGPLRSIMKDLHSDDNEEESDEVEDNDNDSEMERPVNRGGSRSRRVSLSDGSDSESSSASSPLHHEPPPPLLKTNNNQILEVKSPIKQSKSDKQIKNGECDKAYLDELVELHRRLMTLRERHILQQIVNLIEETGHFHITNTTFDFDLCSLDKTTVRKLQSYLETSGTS
Ecoli rRNA inh OD600: also measured in Ecoli rRNA inh; calls as there; OD600 change, %; measured here: OD600 growth;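 optical density of the mix in the first replicate; 0 = DMSO median and -100 = no signal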
Ecoli rRNA inh RFP: further read-out of Ecoli rRNA inh, marked with its call; RFP signal change, %; measured here: RFP humanized mutant strains;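 first replicate; 0 = DMSO median and -100 = no signal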
* = called active by the depositor; i = inactive; + = active, no number; & = joins results of further samples. A portion of the library; count on the stated rates, not on these rows.

cpd	mol	FGF22 binding	Ecoli rRNA inh	Ecoli rRNA inh OD600	Ecoli rRNA inh RFP	MLL AF4-AF9 inh
1	O=C(NCC[C@H]1CC[C@@H](NC(=O)C2CCC2)[C@H](CO)O1)c1cnccn1	i	2	-2	-1.9	-13
2	CS(=O)(=O)N1[C@@H](C#N)[C@H](c2ccc(C#CC3CCCCC3)cc2)[C@@H]1CO	i	2	1	1.4	4.6
3	CN1CCN(C(=O)C[C@H]2C[C@H]3c4cc(NC(=O)NC5CCCC5)ccc4O[C@H]3[C@@H](CO)O2)CC1	i	3	2	-0.8	0.4
4	CCCNC(=O)N1[C@@H](CO)[C@H](c2ccccc2)[C@@H]1CNC(=O)c1cccc(F)c1	i	-8	10	-1.1	-1.0
5	CCS(=O)(=O)Nc1ccc2c(c1)C(=O)N(C)[C@H]1CC[C@H](CC(=O)NCCOC)O[C@H]1CO2	i	2	4	-1.0	0.3
6	CCCCCCN1C[C@@H](n2cc(COC(=O)c3ccccc3)nn2)[C@H](O)C[C@@H]1c1ccc(C)cc1	i	4	7	3.5	-4.7
7	Cc1noc(C)c1S(=O)(=O)N(C)C[C@H]1OCCCC[C@@H](C)Oc2ccc(NC(=O)C3CCCCC3)cc2C(=O)N([C@@H](C)CO)C[C@@H]1C	i	1	-6	2.5	4.2
8	C[C@@H]1CN([C@@H](C)CO)C(=O)c2cc(C#CCN(C)C)cnc2O[C@@H]1CN(C)Cc1ccc(C(=O)O)cc1	i	6	0	-1.1	-14
9	Cc1cc(C)n2nc(C(=O)OCC(=O)NC3CCS(=O)(=O)C3)nc2n1 (centres undefined)	i	9	20	-2.5	-2.3
10	CCOc1cc(OCC)cc(C(=O)NCCN2CCC(n3c(=O)[nH]c4ccccc43)CC2)c1	i	-18	-14	3.2	-0.8
11	O=C(Nc1cccc(Cl)c1Cl)c1csc([C@@H]2O[C@H](CO)[C@@H](O)[C@H]2O)n1	i	-5	-4	-4.6	1.6
12	C[C@@H]1CN([C@@H](C)CO)C(=O)Cc2cc(NS(=O)(=O)c3cccs3)ccc2O[C@H]1CN(C)C	i	3	3	-3.0	-0.8
13	CC(C)[C@H](C)NC(=O)N(C)C[C@@H]1OCc2ccccc2-c2ccccc2C(=O)N([C@@H](C)CO)C[C@H]1C	i	3	6	-3.6	0.2
14	COc1ccc(CN(C)C[C@H]2OCCCC[C@H](C)Oc3ccc(NC(=O)NC4CCCCC4)cc3C(=O)N([C@H](C)CO)C[C@@H]2C)cc1	i	2	0	1.0	6.0
15	COc1ccc(C#Cc2ccc3c(c2)[C@H]2[C@H](CCN2C(=O)C2CCCCC2)[C@H](CO)N3)cc1	i	0	15	-1.8	-1.2
16	COCC(=O)N(C)C[C@@H]1Oc2cc(C#CC(C)C)ccc2S(=O)(=O)N([C@H](C)CO)C[C@H]1C	i	-2	6	1.1	-0.1
17	CN1C(=O)c2cc(NC(=O)C3CC3)ccc2OC[C@@H]2O[C@@H](CC(=O)NC3CCC3)CC[C@H]21	i	2	-2	-3.8	-4.2
18	COC(=O)[C@H]1[C@H](CO)[C@H]2Cn3c(ccc(C4=CCCCC4)c3=O)[C@H]2N1C(=O)C1CCCC1	i	-2	2	-2.4	0.7
19	O=c1ccc(=O)n(CCc2ccccn2)[nH]1	i	4	10	1.5	-21
20	C[C@H](NC(=O)C[C@@H]1C[C@H]2c3cc(NC(=O)NC4CCCCC4)ccc3O[C@H]2[C@@H](CO)O1)c1ccccc1	i	-5	-6	-3.2	-0.3
21	COc1ccccc1NC(=O)N[C@H]1CC[C@H](CCNC(=O)Cc2ccccn2)O[C@H]1CO	i	1	-4	0.0	0.3
22	COc1ccc(S(=O)(=O)N2C[C@@H](O)COC[C@@H]3O[C@H](CC(=O)NCCCN(C)C)CC[C@H]32)cc1	i	1	5	-1.7	-0.9
23	Cc1noc(C)c1NC(=O)Nc1ccc2c(c1)CC(=O)N([C@@H](C)CO)C[C@@H](C)[C@H](CN(C)Cc1ccc(-c3ccccc3)cc1)O2	i	-4	-39	11	6.1
24	N#Cc1ccc(C(C(=O)NCc2ccccc2)n2c(=O)c(-c3cc4ccccc4[nH]3)nc3ccccc32)cc1 (centres undefined)	i	15	15	1.6	-16
25	Cc1noc(C)c1NC(=O)N[C@@H]1C=C[C@H](CC(=O)NCc2ccc(Cl)c(Cl)c2)O[C@H]1CO	i	4	3	2.2	-3.7
26	C[C@H]1CN([C@@H](C)CO)C(=O)c2cccc(NS(=O)(=O)c3ccc(Cl)cc3)c2O[C@H]1CN(C)Cc1ccc(Cl)c(Cl)c1	i	4	-1	2.8	-0.7
27	O=c1ccn([C@@H]2O[C@H](CNCc3ccc(-c4cc(C(F)(F)F)ccc4Cl)o3)[C@@H](O)[C@H]2O)c(=O)[nH]1	i	-23	-36	-5.4	1.2
28	O=C(NCC[C@H]1CC[C@H](NS(=O)(=O)c2cccc(F)c2)[C@H](CO)O1)c1cnccn1	i	0	3	-2.2	0.1
29	Cc1noc(C)c1NC(=O)N(C)C[C@@H]1Oc2ccc(NS(=O)(=O)c3ccc(F)cc3)cc2CC(=O)N([C@H](C)CO)C[C@@H]1C	i	1	-3	-1.7	-0.9
30	C[C@H](O)C#Cc1cnc2c(c1)C(=O)N([C@H](C)CO)C[C@H](C)[C@H](CN(C)C(=O)Cc1ccccn1)O2	i	1	2	0.5	-5.7
31	CO[C@@H]1CN(C)C(=O)c2cc(NC(=O)NC(C)C)ccc2OC[C@H](C)N(CC2CC2)C[C@@H]1C	i	-1	0	-0.6	-16
32	CC(=O)C1=C(O)C2(C)c3c(O)c(C)c(O)c(C(C)=O)c3OC2CC1=O (centres undefined)	i	-5	-3	1.9	-0.8
33	CNC[C@@H]1OCCCC[C@@H](C)Oc2ccc(NC(=O)Nc3ccc4c(c3)OCO4)cc2C(=O)N([C@H](C)CO)C[C@@H]1C	i	2	5	-1.3	-3.8
34	O=C(NC1CCC1)[C@H]1[C@H](CO)[C@H]2Cn3c(ccc(C4=CCCCC4)c3=O)[C@@H]1N2CC1CC1	i	-2	-3	-0.5	1.6
35	CO[C@@H]1CN(C)C(=O)c2ccc(NC(=O)Nc3ccccc3)cc2OC[C@H](C)N(C(=O)CC2CC2)C[C@H]1C	i	-4	-11	2.1	-1.7
36	O=C(C[C@H]1CC[C@H](NC(=O)Nc2ccccc2)[C@@H](CO)O1)NCc1cccc(F)c1	i	1	4	-1.8	-1.9
37	C[C@H](CO)N1C[C@H](C)[C@@H](CN(C)C)Oc2ccc(NS(=O)(=O)c3ccc(Cl)cc3)cc2C1=O	i	3	9	-0.8	-13
38	COc1ccc(-c2ccc([C@@H]3[C@H](C#N)N(C(=O)NC(C)C)[C@H]3CO)cc2)cc1	i	-3	-2	-2.4	0.4
39	O=S1(=O)C=C(Sc2ccc(Cl)cc2)c2ccccc2C1Cc1ccc(F)cc1 (centres undefined)	i	16	20	2.8	1.6
40	C[C@@H]1CN([C@H](C)CO)C(=O)c2cc(C#Cc3ccccc3)cnc2O[C@H]1CN(C)S(=O)(=O)c1ccccc1F	i	0	0	-0.8	-7.4
41	C[C@@H]1CN([C@@H](C)CO)C(=O)c2cc(NC(=O)C3CC3)ccc2O[C@H]1CN(C)C(=O)Nc1ccc(C(F)(F)F)cc1	i	-29*	-22*	3.8*	-2.2
42	CCC(=O)N1C[C@@H](C)[C@H](OC)CN(C)C(=O)c2ccc(NC(=O)c3ccno3)cc2OC[C@@H]1C	i	4	1	-0.8	-7.8
43	C[C@H](CO)N1C[C@H](C)[C@H](CN(C)C(=O)Nc2ccc3c(c2)OCO3)Oc2ccc(NS(=O)(=O)c3cn(C)cn3)cc2CC1=O	i	-1	4	2.8	-27
44	CC(=O)Nc1ccc(-c2ccnc3c2CC(C)(C(=O)NCc2ccc(N(C)C)cc2)O3)cc1 (centres undefined)	i	-3	2	5.2	17
45	C[C@@H]1CN([C@H](C)CO)C(=O)c2cc(NC(=O)Nc3ccc(F)cc3)ccc2O[C@@H](C)CCCCO[C@@H]1CN(C)Cc1ccc(C(F)(F)F)cc1	i	-1	0	-1.6	1.0
46	C[C@@H]1CN([C@@H](C)CO)C(=O)c2cc(C#C[C@@H](C)O)cnc2O[C@@H]1CN(C)Cc1ccc(-c2ccccc2)cc1	i	0	-8	6.6	2.5
47	CCS(=O)(=O)Nc1ccc2c(c1)C(=O)N(C)[C@@H]1CC[C@H](CC(=O)N3CCN(C)CC3)O[C@@H]1CO2	i	1	9	-2.7	-2.3
48	C[C@H]1CN([C@@H](C)CO)S(=O)(=O)c2ccc(-c3ccccc3F)cc2O[C@@H]1CN(C)C(=O)C1CC1	i	2	-14	2.6	2.7
49	O=C(C[C@@H]1C[C@@H]2c3cc(NC(=O)Nc4ccc(C(F)(F)F)cc4)ccc3O[C@@H]2[C@H](CO)O1)NCc1ccc(Cl)cc1	i	-6	-1	-0.2	0.1
50	CO[C@H]1CC[C@H]2CCOc3c(C#N)cccc3C(=O)N(C)[C@H](C)C(=O)N(C)C[C@H]1O2	i	2	7	-5.3	-15
51	COCC(=O)N1[C@@H](CO)[C@H](c2ccccc2)C12CN(C(=O)NC1CCCCC1)C2	i	3	-1	-3.3	-0.1
52	Cc1noc(C)c1NC(=O)Nc1cccc2c1O[C@@H](CN(C)Cc1ccc(C(=O)Nc3ccccc3N)cc1)[C@@H](C)CN([C@H](C)CO)C2=O	i	2	4	-3.0	4.6
53	C[C@H](CO)N1C[C@H](C)[C@H](CN(C)Cc2ccc(C(=O)O)cc2)Oc2ccc(NS(=O)(=O)c3cn(C)cn3)cc2C1=O	i	-1	-7	-1.9	-0.6
54	COc1ccc(OC)c(CN2C(=O)c3ccccc3C2c2nnnn2C(C)C)c1 (centres undefined)	i	5	3	3.9	-1.9
55	CNC[C@H]1Oc2ccc(NC(=O)Nc3ccc(OC)cc3)cc2CC(=O)N([C@@H](C)CO)C[C@H]1C	i	4	2	-0.1	-2.8
56	C[C@@H]1CN([C@@H](C)CO)S(=O)(=O)c2ccc(Br)cc2O[C@H]1CN(C)Cc1ccc(-c2ccccc2)cc1	i	2&0	4&18	3.6&-8.1	-0.7&-6.0
57	C[C@@H]1CN([C@H](C)CO)C(=O)c2cc(NS(=O)(=O)c3cccs3)ccc2O[C@@H](C)CCCCO[C@@H]1CN(C)S(=O)(=O)c1cn(C)cn1	i	-2	-4	-1.3	1.8
58	CN(C)C(=O)C[C@H]1CC[C@@H]2[C@H](COC[C@H](O)CN2S(=O)(=O)c2ccccc2)O1	i	2	5	-6.4	-5.3
59	CCCN1[C@H](C(=O)NC2Cc3ccccc3C2)[C@@H](CO)[C@@H]2Cn3c(cccc3=O)[C@@H]21	i	-4	-5	-0.7	-1.5
60	CO[C@H]1CN(C)C(=O)c2ccc(NC(=O)c3ccc(Oc4ccccc4)cc3)cc2OC[C@@H](C)NC[C@H]1C	i	-5	-4	5.4	10

Ordered by heavy-atom count (rising): part of the list above.
cpd	mol	FGF22 binding	Ecoli rRNA inh	Ecoli rRNA inh OD600	Ecoli rRNA inh RFP	MLL AF4-AF9 inh
59	CCCN1[C@H](C(=O)NC2Cc3ccccc3C2)[C@@H](CO)[C@@H]2Cn3c(cccc3=O)[C@@H]21	i	-4	-5	-0.7	-1.5
5	CCS(=O)(=O)Nc1ccc2c(c1)C(=O)N(C)[C@H]1CC[C@H](CC(=O)NCCOC)O[C@H]1CO2	i	2	4	-1.0	0.3
37	C[C@H](CO)N1C[C@H](C)[C@@H](CN(C)C)Oc2ccc(NS(=O)(=O)c3ccc(Cl)cc3)cc2C1=O	i	3	9	-0.8	-13
8	C[C@@H]1CN([C@@H](C)CO)C(=O)c2cc(C#CCN(C)C)cnc2O[C@@H]1CN(C)Cc1ccc(C(=O)O)cc1	i	6	0	-1.1	-14
57	C[C@@H]1CN([C@H](C)CO)C(=O)c2cc(NS(=O)(=O)c3cccs3)ccc2O[C@@H](C)CCCCO[C@@H]1CN(C)S(=O)(=O)c1cn(C)cn1	i	-2	-4	-1.3	1.8

Following part
cpd	mol	FGF22 binding	Ecoli rRNA inh	Ecoli rRNA inh OD600	Ecoli rRNA inh RFP	MLL AF4-AF9 inh
61	O=C(NCC1CC1)[C@H]1[C@H](CO)[C@H]2Cn3c(ccc(-c4cccnc4)c3=O)[C@H]2N1C(=O)NC1CCCC1	i	1	7	-2.4	0.4
62	O=C(CC(F)(F)F)N1C[C@@H]2[C@H](c3ccccc31)[C@@H](CO)N2C(=O)c1cccnc1	i	2	3	-2.9	-1.7
63	O=C(NCC[C@H]1CC[C@H](NC(=O)C2CCOCC2)[C@@H](CO)O1)Nc1ccc(Cl)cc1	+	-3	4	-2.1	-8.3
64	CCOc1ccc(Cl)cc1-c1cc(C(=O)NCc2cccs2)[nH]n1	i	-19	-35	-4.3	-26
65	C[C@H]1CN([C@@H](C)CO)C(=O)c2cc(NS(=O)(=O)c3ccc(F)cc3)ccc2O[C@@H]1CN(C)C(=O)Nc1ccc(C(F)(F)F)cc1	i	-2	-14	0.1	-2.1
66	C[C@H](CO)N1C[C@H](C)[C@H](CN(C)C(=O)c2ccncc2)OCCCC[C@H](C)Oc2ccc(NS(C)(=O)=O)cc2C1=O	i	5	5	-2.9	1.8

Screening results deposited in PubChem by Broad Institute.
